YjeE inh: inhibitors of E. coli YjeE (TsaE) | P0AF67 | purified YjeE, fluorescence polarisation of a bound ADP probe | Potency, µM | actives 0.05% (n = 71,000) | AID 605; active = well fitted falling curve; inconclusive = weaker or top-dose-only fall, or a rising curve; inactive = flat or poorly fitted curve;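 note: top concentration of the series not given in the record; excess ADP was the control for the full effect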
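Fluorescence polarization of a BODIPY Texas Red–ADP probe (2 uM) bound to purified YjeE (10 uM) was read after 15 min room-temperature incubation with compounds. Loss of polarization marks inhibitors; ADP serves as titrated control.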
Bst PK mod: modulators of Bacillus stearothermophilus pyruvate kinase. partly purified Bacillus stearothermophilus pyruvate kinase, luminescence ATP production; ribose 5-phosphate activator present at AC10. Potency, µM. actives 1.2% (n = 51,000). AID 361; in the data active means potency below about 11 µM; inconclusive means mostly about 12 µM to 25 µM; inactive means weaker than that;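 the screen sought inhibitors and activators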;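 note: potency is the fitted concentration of half-maximal effect; scaled between full activation by ribose 5 phosphate and full inhibition by luteolin; about four in five hits inhibit and the cells do not say which; series up to 57 µM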
* marks the source's active call; other numbers are inactive results. The list is partial; count on the stated rates, not on these rows.

How did O=C(OCCCN1CCCCC1)c1ccc(O)cc1 do in these assays?
YjeE inh: inactive; Bst PK mod: >57

How did Cc1nn(C)c(N)c1C(O)(c1nccn1C)C(F)(F)F (centres undefined) do in these assays?
YjeE inh: inactive; Bst PK mod: >57

Results for CCCC(C(=O)NC1CCCC1)N(CC1CCCO1)C(=O)c1snc(C(N)=O)c1N (centres undefined) ?
YjeE inh: inactive; Bst PK mod: >57

Results for O=C(Nc1sccc1C(=O)N1CCOCC1)c1cccnc1 ?
YjeE inh: inactive; Bst PK mod: >57

Results for COCCN1C(=O)C(O)=C(C(C)=O)C1c1ccc(F)cc1 (centres undefined) ?
YjeE inh: inactive; Bst PK mod: >57

What do the screens show for `CCCN1C2CCCC1CC(NC(=O)c1ccccc1OCC)C2` (centres undefined)?
YjeE inh: inactive; Bst PK mod: >57

Results for O=C(CCn1nc(-c2ccccc2)c2ccccc2c1=O)NCC1CCCO1 (centres undefined) ?
YjeE inh: inactive; Bst PK mod: >57

What do the screens show for `O=C(O)Cc1[nH]cnc1C(=O)O`?
YjeE inh: inactive

Results for COC(=O)c1cc(NC(=O)c2c(Cl)nc3sccn23)cc(C(=O)OC)c1 ?
YjeE inh: inactive; Bst PK mod: >57

What do the screens show for `Cc1ccc(S(=O)(=O)Nc2nncs2)cc1`?
YjeE inh: inactive; Bst PK mod: >57

What do the screens show for `CC(C)(C)C(=O)/C=C(N)/C=C/c1ccccc1`?
YjeE inh: inactive

How did CCC1CCCCN1C(=O)Nc1ccc(F)cc1 (centres undefined) do in these assays?
YjeE inh: inactive; Bst PK mod: >57

What do the screens show for `CCCc1nc(N)c(C#N)c(-c2ccco2)c1CC`?
YjeE inh: inactive; Bst PK mod: >57

Results for O=C(O)c1ccccc1-c1ccc(/C=c2\sc3nc4cc(Br)cnc4n3c2=O)o1 ?
YjeE inh: inactive

Results for N=c1sccn1CC(=O)Nc1ccccc1-c1ccccc1 ?
YjeE inh: inactive; Bst PK mod: >57

Results for Cc1cc(C)c2c(n1)SCC(=O)N2CC(=O)NCCC1=CCCCC1 ?
YjeE inh: inactive

How did O=C1CSC(=Nc2cc(Cl)ccc2Cl)N1 do in these assays?
YjeE inh: inactive; Bst PK mod: inactive

Results for CC1=CC(=O)CC(C)(C)C1(O)/C=C/C(C)=C\C(=O)O (centres undefined) ?
YjeE inh: inactive

How did COc1ccccc1OCCn1c(CO)nc2ccccc21 do in these assays?
YjeE inh: inactive; Bst PK mod: >57

How did COc1ccc(NC(=O)N2CC[C@@]3(CCCN(S(C)(=O)=O)C3)C2)cc1 do in these assays?
YjeE inh: inactive

What do the screens show for `O=C(NCCCN1CCOCC1)c1cc(-c2ccc(Cl)cc2)on1`?
YjeE inh: inactive; Bst PK mod: >57

How did C[C@@](N)(C(=O)O)c1ccc(P(=O)(O)O)cc1 do in these assays?
YjeE inh: inactive

What do the screens show for `COC(=O)c1ccc(CSCC(=O)Nc2cc(OC)cc(OC)c2)o1`?
YjeE inh: inactive; Bst PK mod: >57

How did O=C(O)c1cc2c(ccc3ccccc32)[nH]1 do in these assays?
YjeE inh: inactive; Bst PK mod: >57

What do the screens show for `CCc1ccccc1O`?
YjeE inh: inactive

What do the screens show for `COc1ccc(C2C(C(C)=O)=C(C)N=c3s/c(=C\c4cc(C)n(C)c4C)c(=O)n32)c(OC)c1` (centres undefined)?
YjeE inh: inactive

What do the screens show for `CCOC(=O)c1c(NC(=O)c2ccc(Cl)s2)sc(C)c1C`?
YjeE inh: inactive

Results for Cc1ccc(C)c(NC(=O)c2ccccc2O)c1 ?
YjeE inh: inactive; Bst PK mod: >57

How did CCOC(=O)c1sc(=S)n(CC)c1NC(=O)C1CC1 do in these assays?
YjeE inh: inactive; Bst PK mod: >57

Results for Nn1cnnc1SCC(=O)Nc1ccc2c(c1)OCCO2 ?
YjeE inh: inactive; Bst PK mod: >57

How did O=C(NCc1cccs1)C1CCN(c2nccs2)CC1 do in these assays?
YjeE inh: inactive; Bst PK mod: >57

Results for O=C(CSc1nnc(Cc2cccs2)n1Cc1ccco1)Nc1ccc(Cl)cc1Cl ?
YjeE inh: inactive; Bst PK mod: >57

Results for O=C(Cc1ccc(Cl)cc1)NCCN1CCCC1 ?
YjeE inh: inactive; Bst PK mod: >57

Results for CCc1nnc(NC(=O)C2CC(=O)N(c3ccc(C)cc3)C2)s1 (centres undefined) ?
YjeE inh: inactive; Bst PK mod: >57

Results for c1ccc2c(c1)CCN(c1ncnc3nc[nH]c13)C2 ?
YjeE inh: inactive

What do the screens show for `O=C(N1CCCCCC1)N1CCN(C(=O)N2CCCCC2)CC1`?
YjeE inh: inactive; Bst PK mod: >57

How did O=C(Nc1nnc(CCc2ccccc2)s1)c1cccs1 do in these assays?
YjeE inh: inactive; Bst PK mod: >57

What do the screens show for `N#CC1=C(O)C(c2ccccc2)n2c1nc(=O)c1ccccc12` (centres undefined)?
YjeE inh: inactive; Bst PK mod: >57

What do the screens show for `N#C/C(=C\c1ccc[nH]1)S(=O)(=O)c1ccccc1`?
YjeE inh: inactive; Bst PK mod: >57

How did Cc1sc(NC(=O)CCCC(=O)O)c(C#N)c1C do in these assays?
YjeE inh: inactive

What do the screens show for `O=C(COC(=O)c1cccc(S(=O)(=O)N2CCc3ccccc32)c1)NC1CCS(=O)(=O)C1` (centres undefined)?
YjeE inh: inactive; Bst PK mod: >57

How did CCOc1cc(C2C(C(=O)OC)=CN(C3CCCC3)C=C2C(=O)OC)cc(Br)c1O do in these assays?
YjeE inh: inactive; Bst PK mod: >57

Results for O=C(OCC(=O)N1CCN(C(=O)c2ccco2)CC1)c1ccccc1C(=O)c1ccc(Cl)cc1 ?
YjeE inh: inactive; Bst PK mod: >57

Results for COc1ccc(-c2nn3c(-c4ccccn4)nnc3s2)cc1OC ?
Bst PK mod: inactive

Results for Clc1ccc2[nH]c3c(NCCN4CCOCC4)ncnc3c2c1 ?
Bst PK mod: inactive

Results for COc1cc(OC)c(C(=O)CCCCN2CCC3(CC2)NC(=O)NC3=O)cc1NS(=O)(=O)c1ccc(C(F)(F)F)cc1 ?
YjeE inh: inactive

What do the screens show for `Cc1noc(C)c1COc1ccc(C(=O)OCC(=O)c2ccc3c(c2)OCCO3)cc1`?
YjeE inh: inactive; Bst PK mod: >57

Results for CCOC(=O)N1CCC(NC(=O)C2CCN(C(=O)N3CCOc4ccccc43)CC2)CC1 ?
YjeE inh: inactive; Bst PK mod: >57

What do the screens show for `Cc1c(C(=O)Nc2ccncc2)sc2nc(-c3ccccc3)cn12`?
YjeE inh: inactive

How did CCOC(=O)C1=C(C)OC(N)=C(C#N)C1c1cc2c(cc1Br)OCO2 (centres undefined) do in these assays?
YjeE inh: inactive; Bst PK mod: >57

Results for Cc1cc(NC(=O)c2noc3c2CCCC3)nn1Cc1ccc(Cl)cc1 ?
YjeE inh: inactive; Bst PK mod: >57

What do the screens show for `CCOC(=O)Cc1csc(NC(=O)c2ccoc2C)n1`?
YjeE inh: inactive; Bst PK mod: >57

Results for CCOC(=O)CSc1nnc(CNC(=O)Cc2ccccc2)n1-c1ccccc1OC ?
YjeE inh: inactive; Bst PK mod: >57

What do the screens show for `COCC(=O)NCCc1nc(-c2ccccc2)cs1`?
YjeE inh: inactive; Bst PK mod: >57

Results for CC1(C)CC(=O)C2=C(C1)N(CCN1CCOCC1)C1=C(C(=O)CC(C)(C)C1)C2c1cccc(Cl)c1 ?
YjeE inh: inactive; Bst PK mod: >57

Results for Cc1ccc(S(=O)(=O)NCC(=O)OCC(=O)N2CCc3ccccc32)cc1 ?
YjeE inh: inactive; Bst PK mod: >57

What do the screens show for `O=c1[nH]c2ccccc2n1CCCSc1cnc2ccccc2n1`?
YjeE inh: inactive

How did CC(NC(=O)CSc1ncnc2nc[nH]c12)c1ccccc1 (centres undefined) do in these assays?
YjeE inh: inactive

How did O=C1CC(C(=O)NCc2ccccc2)C2(CCCC2)O1 (centres undefined) do in these assays?
YjeE inh: inactive; Bst PK mod: >57

Results for COc1ccc(N=C(N(C)C)P(=O)(N(C)C)N(C)C)cc1 ?
YjeE inh: inactive; Bst PK mod: >57

What do the screens show for `Cc1ccc(CN2C(=O)CCC2C(=O)NCCCN2CCC(C)CC2)cc1` (centres undefined)?
YjeE inh: inactive; Bst PK mod: >57

How did CCOC(=O)Nc1ccc2c(c1)nc(CN1CCOCC1)n2C do in these assays?
YjeE inh: inactive; Bst PK mod: >57

How did COCCCNC(=O)c1c(N)n(-c2ccc3c(c2)OCO3)c2nc3ccccc3nc12 do in these assays?
YjeE inh: inactive; Bst PK mod: >57

What do the screens show for `O=C(c1cn[nH]c1)c1cc(F)ccc1O`?
YjeE inh: inactive; Bst PK mod: >57

How did COc1ccc(C2NC(=O)NC(C)=C2C(=O)Nc2cc(C)ccc2C)cc1OC (centres undefined) do in these assays?
YjeE inh: inactive

How did COc1ccc2[nH]cc(CCNc3ncnc4ccc(-c5ccoc5)cc34)c2c1 do in these assays?
YjeE inh: inactive

What do the screens show for `O=c1[nH]c(CN2CCN(Cc3ccccc3)CC2)nc2sc3c(c12)CCC3`?
YjeE inh: inactive; Bst PK mod: >57

Results for O=C(Cn1nnc(-c2ccccc2)n1)N1CCN(S(=O)(=O)c2ccc(Cl)cc2)CC1 ?
YjeE inh: inactive; Bst PK mod: >57

How did Cc1ccc(S(=O)(=O)N(CC(=O)N2CCC(C(N)=O)CC2)c2cccc(C(F)(F)F)c2)cc1 do in these assays?
YjeE inh: inactive

What do the screens show for `Cc1cc(C)nc(SCNC(=O)c2ccccc2)n1`?
YjeE inh: inactive; Bst PK mod: >57

How did Cc1cc(C(=O)O)c(CSc2ncn[nH]2)o1 do in these assays?
Bst PK mod: >25.6

What do the screens show for `O=C(NCc1cccnc1)C1c2ccccc2C(=O)N1C1CCCCCCC1` (centres undefined)?
YjeE inh: inactive; Bst PK mod: >57

How did O=CN1Cc2[nH]c3ccccc3c2N(c2ccc(Cl)cc2)C1=O do in these assays?
YjeE inh: inactive; Bst PK mod: >57

How did COc1ccc(CN(CCCN2CCOCC2)C(=O)Nc2cccc(Cl)c2)cc1OC do in these assays?
YjeE inh: inactive; Bst PK mod: >57

What do the screens show for `O=C(Nc1ccc(NC(=O)C23CC4CC(CC(C4)C2)C3)cn1)c1ccco1`?
YjeE inh: inactive; Bst PK mod: >57

7 structures already listed, arranged by number of heavy atoms, smallest number first:
What do the screens show for `O=C(c1cn[nH]c1)c1cc(F)ccc1O`?
YjeE inh: inactive; Bst PK mod: >57

How did Cc1cc(C(=O)O)c(CSc2ncn[nH]2)o1 do in these assays?
Bst PK mod: >25.6

How did CCOC(=O)Nc1ccc2c(c1)nc(CN1CCOCC1)n2C do in these assays?
YjeE inh: inactive; Bst PK mod: >57

What do the screens show for `O=C(Nc1ccc(NC(=O)C23CC4CC(CC(C4)C2)C3)cn1)c1ccco1`?
YjeE inh: inactive; Bst PK mod: >57

What do the screens show for `O=C(NCc1cccnc1)C1c2ccccc2C(=O)N1C1CCCCCCC1` (centres undefined)?
YjeE inh: inactive; Bst PK mod: >57

How did COc1ccc2[nH]cc(CCNc3ncnc4ccc(-c5ccoc5)cc34)c2c1 do in these assays?
YjeE inh: inactive

How did COCCCNC(=O)c1c(N)n(-c2ccc3c(c2)OCO3)c2nc3ccccc3nc12 do in these assays?
YjeE inh: inactive; Bst PK mod: >57

Remaining list, next part.
What do the screens show for `COc1ccc(C(=O)N(Cc2ccco2)C(C(=O)NC2CCCC2)c2ccc(O)cc2)cc1OC` (centres undefined)?
YjeE inh: inactive; Bst PK mod: >57

Results for Cc1cc(NC(=O)CSc2nnc3c4c(C)c(C)sc4ncn23)no1 ?
YjeE inh: inactive; Bst PK mod: >57

Results for Cc1nn(Cc2ccc(Cl)cc2)c(C)c1NC(=O)C1CC=CCC1C(=O)O (centres undefined) ?
YjeE inh: inactive; Bst PK mod: >57

What do the screens show for `COc1cccc(OC)c1OCCNC[C@@H]1COc2ccccc2O1`?
YjeE inh: inactive

What do the screens show for `COc1cc(N=C(N)N=C(N)N)c2ncccc2c1`?
YjeE inh: inactive

How did N#CC1=C(N)C(C#N)(C#N)C2(C(=O)Nc3ccccc32)C2CCCC=C12 (centres undefined) do in these assays?
YjeE inh: inactive

How did CCc1nccn1S(=O)(=O)c1cc(Br)ccc1OC do in these assays?
YjeE inh: inactive

Results for CC(C)(C)c1ccc([C@@H](O)CCCN2CCC(C(O)(c3ccccc3)c3ccccc3)CC2)cc1 ?
YjeE inh: inactive

What do the screens show for `CSc1ncccc1C(=O)OCc1ccccc1F`?
YjeE inh: inactive; Bst PK mod: >57

How did Cc1[nH]nc(-c2ccc(O)cc2O)c1Oc1ccccc1 do in these assays?
Bst PK mod: >25.6

What do the screens show for `O=P(C1=C(N2CCOCC2)/C(=C\c2ccccc2)CC1)(N1CCOCC1)N1CCOCC1`?
YjeE inh: inactive; Bst PK mod: >57

Results for CCOC(=O)c1sc(NC(=O)COC(=O)c2ccco2)nc1C ?
YjeE inh: inactive

What do the screens show for `CCCn1c(OC)nc2c1c(=O)n(C)c(=O)n2C`?
YjeE inh: inactive

Results for COC(=O)c1ccc(NC(=O)CN2CCN(S(=O)(=O)c3cc(Cl)ccc3OC)CC2)cc1 ?
YjeE inh: inactive; Bst PK mod: >57

Results for O=c1[nH]cnc2c1oc1ccccc12 ?
YjeE inh: inactive; Bst PK mod: >11.4

How did Cc1sc2nc(C3CC3)nc(N3CCN(S(=O)(=O)c4ccc(F)cc4)CC3)c2c1C do in these assays?
YjeE inh: inactive; Bst PK mod: >57

How did Cc1cc(NC(=O)c2cc(-c3ccccc3)on2)n(-c2ccccc2)n1 do in these assays?
YjeE inh: inactive; Bst PK mod: >57

What do the screens show for `O=C(Oc1ccc2c(c1)OCO2)c1ccc(Br)c(S(=O)(=O)N2CCOCC2)c1`?
YjeE inh: inactive; Bst PK mod: >57

What do the screens show for `O=C(CC(c1ccccc1O)N1CCCCC1)N1CCCCC1` (centres undefined)?
YjeE inh: inactive

Screens: PubChem, National Center for Advancing Translational Sciences (NCATS)
